Source: PubChem BioAssay
Rce1 inhib: yeast Rce1p protease inhibitors, primary screen, biochemical, fluorescence, cell-free homogeneous | yeast membranes, quenched prenylated peptide cleavage fluorescence | AID 2563, 2010 | calls only | CAAX prenyl protease 2 (Saccharomyces cerevisiae (strain ATCC 204508 / S288c)), Q03530 | actives 0.27% (n = 290,000);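 active = fall in fluorescence gain of 50% or more versus controls, with final raw signal at or below 3038400; inconclusive = same 50% fall but final raw signal above 3038400; inactive = fall in fluorescence gain under 50%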;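 also: plate controls were neutral control wells for no effect and wells lacking membranes for full effect; tested at 10 µM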
Target sequence (Q03530 whole entry, looked up): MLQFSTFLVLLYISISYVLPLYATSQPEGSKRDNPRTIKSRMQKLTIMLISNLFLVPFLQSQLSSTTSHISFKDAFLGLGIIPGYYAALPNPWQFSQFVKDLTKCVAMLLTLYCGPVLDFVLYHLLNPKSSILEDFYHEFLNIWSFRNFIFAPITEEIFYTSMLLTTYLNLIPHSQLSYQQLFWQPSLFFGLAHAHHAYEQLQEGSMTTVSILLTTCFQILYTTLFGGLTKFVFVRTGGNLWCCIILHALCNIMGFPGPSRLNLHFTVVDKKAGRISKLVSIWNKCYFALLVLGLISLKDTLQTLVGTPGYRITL
eIF4H FP inh: human eIF4H binding inhibitors, primary screen, translation initiation inhibitor project, biochemical, uHTS, fluorescence polarization; eIF4H fluorescence polarization binding assay; AID 2012, 2009; Eukaryotic translation initiation factor 4H (Homo sapiens), Q15056; actives 0.94% (n = 290,000); inhibition, % at 35 µM;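 active = 50% or more with normal probe brightness, or confirmed in later tests; inconclusive = above 50% with abnormal brightness, or retests that disagree; inactive = below 50% or failed in later tests; about a fifth of its hits are not listed in these tables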;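 also: calls also rest on retests at 20 µM and on dose response follow-up; 0% = protein and probe with vehicle and 100% = probe without protein; strong numbers were not always called active; many hits fall short of the cut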
MT1-MMP act inh: blockers of MT1-MMP proenzyme processing, primary screen, HT1080 RFP-PRO-GFP cells, GFP/RFP fluorescence; GFP/RFP ratio fluorescence, overnight; percent of plate control window, DMSO zero; GFP/RFP ratio change, % at 20 µM; actives 0.061% (n = 360,000);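 active = GFP/RFP ratio change of at least 30% with cell ATP level not reduced by more than half and red fluorescence within 50% of control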; also: strong numbers were not always called active
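Assay system: HT1080 RFP-PRO-GFP cells. Benchmarks: DMSO vehicle wells and RFP-L50D-GFP reporter cell wells. Times: overnight cell settling, then overnight compound exposure, 37 °C, 5% CO2. Compound: 20 µM single dose, 1% DMSO. Read-out basis: GFP/RFP fluorescence ratio.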
CSC inhib: cancer stem cell viability inhibitors, primary screen, luminescence; inhibition, % at 7.5 µM; actives 1.1% (n = 300,000); cancer stem cell-like cells viability;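 active = mean at 75% or more and at least half the replicates too; inconclusive = mean and replicates disagree; tested in HMLE shEcad cells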;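 also: 0% = median of negative and 100% = median of positive control wells; the first replicate is given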
Yeast UUG start: modulators of yeast start codon fidelity, primary screen, whole organism, S. cerevisiae, single point, plate reader. activity score, % at 18.7 µM. S. cerevisiae UUG-firefly luciferase reporter, luminescence/redox ratio. actives 0.13% (n = 350,000);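 active = replicate mean at a twofold rise or more, about +100% in these data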;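 also: firefly luciferase made from a UUG start codon reports start codon fidelity; reporter light over untreated wells divided by growth signal over untreated wells; some hits fall short of that in this replicate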
PABP FP inh: PABP poly(A) RNA binding inhibitors, primary screen, biochemical, fluorescence polarization, uHTS. Polyadenylate-binding protein 1 (Homo sapiens), P11940. inhibition, % at 35 µM. actives 1% (n = 290,000). AID 2014, 2009;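 active = 50% or more with normal probe brightness, or confirmed in later tests; inconclusive = above 50% with abnormal brightness, or retests that disagree; inactive = below 50% or failed in later tests; about a fifth of its hits are not listed in these tables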;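 also: calls also rest on retests at 20 µM and on dose response follow-up; controls were probe without protein and protein plus probe with vehicle; some compounds called inactive have numbers as strong as hits; many hits fall short of the cut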
Target sequence (P11940 whole entry, looked up): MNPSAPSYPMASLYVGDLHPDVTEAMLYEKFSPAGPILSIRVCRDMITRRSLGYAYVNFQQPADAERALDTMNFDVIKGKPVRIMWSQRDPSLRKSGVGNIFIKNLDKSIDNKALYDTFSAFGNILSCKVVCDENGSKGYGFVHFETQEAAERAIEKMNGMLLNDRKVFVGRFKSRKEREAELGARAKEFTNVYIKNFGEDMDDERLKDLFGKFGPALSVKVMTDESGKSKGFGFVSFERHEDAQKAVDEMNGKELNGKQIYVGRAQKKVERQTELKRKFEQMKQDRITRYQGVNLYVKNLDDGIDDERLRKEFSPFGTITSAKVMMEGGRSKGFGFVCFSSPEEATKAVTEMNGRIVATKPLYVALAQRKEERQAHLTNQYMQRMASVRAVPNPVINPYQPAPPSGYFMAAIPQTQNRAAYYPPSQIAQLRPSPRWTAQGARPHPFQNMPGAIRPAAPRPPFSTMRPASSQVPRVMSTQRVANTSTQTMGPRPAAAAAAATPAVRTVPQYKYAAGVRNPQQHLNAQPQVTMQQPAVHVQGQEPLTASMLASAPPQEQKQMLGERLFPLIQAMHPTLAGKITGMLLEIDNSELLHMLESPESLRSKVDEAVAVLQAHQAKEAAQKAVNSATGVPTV
HIV Env fusion: inhibitors of HIV-1 Env-driven cell-cell fusion, primary screen, HeLa-JRFL effector, CEM21 target cells, luciferase; inhibition, % at 12.3 µM; actives 1.1% (n = 360,000); AID 651610, 2012;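 active = mean replicate inhibition score of at least 50 and every replicate individually at or above 50; inconclusive = only one of the two criteria met; inactive = mean below 50 and not all replicates reaching 50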;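 also: 0% = plate neutral controls and 100% = maraviroc near 300 nM; one replicate is shown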
eIF4H FP inh retest: second read-out of eIF4H FP inh, no call of its own (marks repeat the call); inhibition, %; compound at 20 µM; confirmation average;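 mean of two retest wells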
PABP FP inh retest: further read-out of PABP FP inh, marked with its call; inhibition, %; compound at 20 µM; confirmation repeats;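 mean of two retest wells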
MT1-MMP act inh RFP: recorded beside MT1-MMP act inh, whose call it bears; RFP signal change, %; measured here: RFP expression control read;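 0 = vehicle wells; hits needed this value within 50% of zero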
Starred values were filed as active, the others as inactive; i = inactive; ? = inconclusive; . = no result given; + = active, no number.

The first 2 compounds, to show the layout:
SMILES	Rce1 inhib	eIF4H FP inh	MT1-MMP act inh	MT1-MMP act inh RFP	CSC inhib	Yeast UUG start	PABP FP inh	HIV Env fusion	others
COc1ccc(N2c3ccccc3CN(Cc3ccccc3)CC2Cc2cc(OC)c(OC)c(OC)c2)cc1 (stereo unspecified)	.	.	-1	-2	.	-3	.	-6
COc1cc(C2NC(=S)NC(c3ccccc3)=C2C(C)=O)cc(Cl)c1OCC(=O)O (stereo unspecified)	i	-5	1	4	-15	.	1	.

This part in full, from the start:
SMILES	Rce1 inhib	eIF4H FP inh	MT1-MMP act inh	MT1-MMP act inh RFP	CSC inhib	Yeast UUG start	PABP FP inh	HIV Env fusion	others
COc1ccc(N2c3ccccc3CN(Cc3ccccc3)CC2Cc2cc(OC)c(OC)c(OC)c2)cc1 (stereo unspecified)	.	.	-1	-2	.	-3	.	-6
COc1cc(C2NC(=S)NC(c3ccccc3)=C2C(C)=O)cc(Cl)c1OCC(=O)O (stereo unspecified)	i	-5	1	4	-15	.	1	.
CCN(CC(=O)Nc1ccc(NC(C)=O)cc1)S(=O)(=O)/C=C/c1ccccc1	.	.	-2	1	16	-10	.	-7
COc1ccc(C(=O)n2cnc3ccccc32)cc1	i	6	0	4	0	19	-1	-60
COC(=O)c1ccc(/C=C(/NC(=O)c2ccccc2)C(=O)N2CCOCC2)cc1	i	6	1	4	-14	3	-2	4
Cc1cccc2sc(NC(=O)C3CCN(C(=O)c4ccco4)CC3)nc12	i	-7	3	-10	-1	7	5	-11
O=C(COC(=O)Cc1ccc(Cl)cc1Cl)Nc1ccccc1OC(F)F	i	0	1	5	7	-3	4	-41
COc1ccc(S(=O)(=O)N(C)C)cc1NS(=O)(=O)c1ccc(F)c(F)c1F	i	-5	-1	-1	-7	.	-3	-10
CCN(CC)S(=O)(=O)c1ccc(C(=O)NCCc2cc3c(OC)ccc(OC)c3[nH]c2=O)cc1	i	-4	7	-3	12	.	-15	.
Cc1nc(N)nc(Cl)c1CCC1OCCO1	.	.	-2	3	.	-14	.	0
CC(C)(C)N(NC(=O)Nc1ccc(Cl)c(Cl)c1)C(=O)c1ccccc1	i	14	-20	-21	.	.	-8	.
O=C(C[n+]1cccc(CNC(=O)c2ccc(OC(F)F)cc2)c1)Nc1cccc(C(F)(F)F)c1	i	-7	-4	3	.	-26	-1	2
CC(=O)c1ccc(N2C(=O)CC(N3CCN(S(=O)(=O)c4ccc(C)c(C)c4)CC3)C2=O)cc1 (stereo unspecified)	.	.	-1	0	-10	-18	.	.
c1ccc2c(c1)NC1(CCCCC1)n1c-2nc2ccccc21	?	-6	-2	-3	-5	-8	0	-48
O=C(OCc1cccc([N+](=O)[O-])c1)c1cccnc1	i	-8	1	3	0	-3	9	-35
Fc1cccc(CSc2nc3ncc(Cl)cc3[nH]2)c1	i	2	-4	0	21	-7	-6	0
CCN(CC)S(=O)(=O)c1cc(NC(=O)Cn2ncc(Cl)c(Cl)c2=O)ccc1C	i	77	-10	-19	?	.	14*	-76	eIF4H FP inh retest=39;PABP FP inh retest=94*
CCC1(C)CC(CCN(Cc2ccco2)C(C)=O)(c2ccccc2)CCO1 (stereo unspecified)	i	3	-5	0	-21	.	0	-24
O=C(NCc1cccnc1)C1CC2c3ccccc3C1c1ccccc12 (stereo unspecified)	i	-2	3	-5	6	-4	-4	-27
Fc1ccc(-c2ccnc3nc(-n4cccc4)nn23)cc1	i	-6	11	2	4	.	-7	-5
CCN(CC)S(=O)(=O)c1ccc(N2C(=O)Nc3ccccc3N2O)cc1	i	-2	4	7	13	-22	10	-2
CCCOc1ccc(N/C=C/C(=O)C(C)(C)C)cc1	i	-5	4	-13	11	6	-2	-6
Cc1ccc(Nc2nc(=O)[nH]nc2C)cc1	i	1	-1	-1	-8	1	8	-6
O=C(Cn1nc(Cc2cccnc2)c2ccccc2c1=O)Nc1cc(F)ccc1F	i	-5	-2	0	-3	-3	3	9
Cc1cc(=O)n(C)c(=O)n1CCCNc1ccccc1	i	-4	-1	0	8	-17	32	.
COC1=C(Nc2ccc(C)cc2)C(=O)c2ccccc2C1=O	i	-10	5	4	2	.	-6	.
CCOc1ccc(N2C(=O)CC(NC3CCN(C(=O)c4cccs4)CC3)C2=O)cc1 (stereo unspecified)	i	-5	0	2	14	1	-10	15
CCOC(=O)C(C(=O)Nc1cccc(C)c1)C1CCCCC1 (stereo unspecified)	i	-13	5	-3	15	.	12	.
COc1ccccc1NC(=O)C1=C(C)NC(SCC(=O)c2ccccc2)=C(C#N)C1c1ccco1 (stereo unspecified)	i	31	-41	-1	.	-18	44	.
COc1ccc(-c2noc(CCCC(=O)N3CCOCC3)n2)cc1	i	-13	2	0	0	4	2	2
Cc1ccc2[nH]c(=O)c(CN(CCCN(C)C)C(=S)NCCc3ccccc3)cc2c1	i	5	-5	-2	7	.	-5	8
COc1ccc(/C=N/NC(=O)c2nc(-c3ccccc3)n(-c3ccccc3)n2)cc1	i	2	4	1	-3	-6	26	.
COc1ccc(CNC(=O)COC(=O)CC2CC3CCC2C3)cc1OC (stereo unspecified)	i	-3	1	-5	-7	.	-6	-2
O=c1c2ccccc2nc(COc2ccccc2)n1/N=C/c1ccc(O)c(O)c1	i	38	3	-10	35	-18	20	-14
O=C(CCl)N=c1sccn1Cc1cccc2ccccc12	i	-12	-24	-32	.	.	-11	66*
O=C(NCCc1ccccc1)C1CCN(C(=O)Nc2ccccc2)CC1	i	.	1	-1	-14	-12	.	.
Cc1cc(C)nc(NC(=O)c2c(F)c(F)c(F)c(C(=O)Nc3cc(C)cc(C)n3)c2F)c1	i	.	-18	-14	44	-18	.	4
NS(=O)(=O)c1cc(C(=O)NCCc2ccccn2)ccc1Cl	i	6	2	5	-15	.	-6	-5
Cc1ccc(Nc2nc3ccccc3c(=O)s2)cc1C	i	2	1	0	-2	-4	10	27
CCC1=Nc2cc(C(=O)NCCN3CCOCC3)ccc2Sc2ccccc21	i	-5	3	-2	-9	-26	-7	-3
CCOc1ccc(NC(=O)C2CCCN(S(=O)(=O)c3cccc4nsnc34)C2)cc1 (stereo unspecified)	i	-9	2	-6	-21	-11	-4	.
O=C(COC(=O)c1cccc2ccccc12)Nc1ncc(C(F)(F)F)cc1Cl	i	-4	3	-1	6	-8	3	-2
O=C1C[C@@H]2CCN3C(=O)CCC[C@@H]([C@H]23)[C@@H]1Cc1ccccc1	.	.	1	3	.	8	.	-31
O=C(Nc1ccccc1)c1cc(C2CCCCN2C(=O)c2cccs2)on1 (stereo unspecified)	.	.	0	0	.	-7	.	1
CCC(=O)Oc1ccc(C(=O)Nc2ccccc2C(=O)NCC(C)C)cc1	i	9	0	2	2	.	-8	-5
COc1ccc(NC(=O)c2cc(S(=O)(=O)N3CCc4ccccc43)cn2C)cc1	i	-4	1	-2	-7	-6	-1	-9
COc1cccc(NC(=O)c2ccc(NC(=O)C(C)(C)C)cc2)c1	i	-2	7	-4	-7	-12	3	-31
CCCNC(=O)C1(C)CCN(Cc2noc(-c3ccccc3OC)n2)C1 (stereo unspecified)	.	.	-1	0	.	-2	.	-4
COc1ccc(-c2ccc(CCC(=O)O)o2)cc1	i	12	-7	-3	-6	.	1	-10
COc1ccc(CNC(=O)c2cccc(S(=O)(=O)N3CCCCC3)c2)cc1OC	.	.	10	-27	-7	0	.	.
CC(=O)NC(C)(c1ccccc1)c1nc(-c2ccc(N(C)C)cc2)cs1 (stereo unspecified)	.	.	-4	-16	.	-17	.	-5
COc1ccc(NS(=O)(=O)c2cc(NC(=O)[C@@H](NC(N)=O)C(C)C)ccc2C)cc1	i	2	-6	-6	48	.	0	-2
O=C1CC(C(=O)N2CCN(c3ccccc3Cl)CC2)CN1Cc1ccccc1 (stereo unspecified)	.	.	4	0	.	0	.	11
O=C(CC(c1ccccc1)c1cc(Br)ccc1O)NCCCN1CCOCC1 (stereo unspecified)	i	0	1	2	-19	-11	7	6
Cc1ccc(NC(=S)N(C)Cc2cn(C)c3ccccc23)cc1	i	-4	-3	3	-11	-10	4	-136
O=C(NCc1cccnc1)c1ccc(-c2cc3ccccc3oc2=O)cc1	i	-2	-4	-23	59	.	-3	38
CC(=O)CCc1oc2ccc(NC(C)=O)cc2c1-c1ccc(C)o1	i	11	-3	-1	-2	2	12	.
CCS(=O)(=O)c1nc(S(=O)(=O)c2ccc(Cl)cc2)c(N2CCOCC2)s1	i	-4	-4	-3	-4	-12	7	7
COc1ccc(C(=O)C2CCCN(C(=O)CCC3=NNC(=O)CC3)C2)c(C)c1 (stereo unspecified)	i	3	-6	0	-1	.	-10	-4
CCOC(=O)C1=C(C)N(c2ccccc2)C(=O)C1CC(=O)O (stereo unspecified)	i	-2	-2	9	-2	7	9	-251

(continued)
SMILES	Rce1 inhib	eIF4H FP inh	MT1-MMP act inh	MT1-MMP act inh RFP	CSC inhib	Yeast UUG start	PABP FP inh	HIV Env fusion	others
Nc1c(C(=O)CSc2nc(-c3ccccc3)cs2)c(=O)[nH]c(=O)n1C1CC1	.	.	4	1	0	-18	.	4
CN(C)C(=S)Nc1ccc(Br)cc1Cl	i	2	0	-1	2	-16	3	4
O=C(CN(C(=O)CCC(=O)Nc1ccccn1)c1ccc(F)cc1)NCc1ccco1	i	-6	1	1	-2	-13	-4	-25
CCc1cc2ccccc2nc1SCC(=O)Nc1cc(OC)c(OC)cc1C(=O)O	i	19	-5	1	-8	.	-6	-60
CCC(C)C(=O)Nc1cc(Cl)ccc1C(=O)O (stereo unspecified)	i	4	-4	-1	-4	.	17	17
CC(NS(=O)(=O)c1ccc(CCC(=O)N2CCN(C)CC2)cc1)c1ccccc1 (stereo unspecified)	i	1	0	2	5	-18	-12	-8
CCOC(=O)C1CCN(S(=O)(=O)c2ccc3c(c2)N(C(C)=O)CCO3)CC1	i	-8	-1	-8	-6	-1	7	-1
COc1ccc(S(=O)(=O)Nc2cc(Cl)ccc2OC)cc1	i	-15	-3	-12	68	-4	-3	?
C/C(=N\NC(=O)c1c(Cl)cnn1C)c1cccc(NC(=O)C(C)C)c1	i	4	5	5	-4	.	-2	.
CN(C)C(=O)CSc1ncnc2scc(-c3ccccc3)c12	i	7	1	1	-4	.	-10	13
CCN(C(=O)COC(=O)c1ccccc1Nc1cccc(C)c1C)C1CCS(=O)(=O)C1 (stereo unspecified)	i	0	-1	-3	-9	37	2	.
COc1ccc(OCCOc2ccc(N(C)S(=O)(=O)c3ccccc3)cc2)cc1	.	.	5	-2	.	-12	.	2
CCCN(CC1CC1)c1nc(N)c2c(N)nc(OC)cc2c1C#N	i	-10	-25	-8	33	.	-4	.
Cc1ccccc1OC(C)C(=O)N1CCC(Cc2ccccc2)CC1 (stereo unspecified)	+	3	-13	-4	-6	1	-6	.
Cn1c2c(c(=O)n(C)c1=O)CN(Cc1ccccc1)CN2	.	.	6	6	.	-6	.	-13
O=C(Nc1ccc2nc([C@@H]3O[C@H](CO)[C@@H](O)[C@H](O)[C@H]3O)[nH]c2c1)NC(c1ccccc1)c1ccccc1	.	.	7	6	.	-23	.	-5

Only part of the results is shown. The share of hits here may be higher or lower than overall.
